VACV mCherry inh – vaccinia inhibition (mCherry reporter) | AID 720579 | Vaccinia virus mCherry reporter infection, fluorescence; about a quarter of the inactives have no number | Potency, µM (top dose mostly 36.5 µM), for inactives: at the top dose activity change, negative = inhibition, usual class: inhibitors | 0.63% of 310,000 active; active = well fitted inhibition curve with a large enough effect; inconclusive = small, poorly fitted or top-dose-only effect; inactive = no such curve, though single readings can be large or run the other way; tested in A549 cells; note: nearly all actives have a fitted effect of over 35% in size; inactives centre near -10
VACV Venus inh – inhibitors of vaccinia virus (Venus reporter). Vaccinia virus Venus reporter expression, fluorescence. Potency, µM (highest dose often 36.5 µM), inactives show at the highest dose activity change, negative = inhibition, hits mostly inhibitors. 0.46% of 330,000 active. AID 720580; active means well fitted inhibition curve with a large enough effect; inconclusive means small, poorly fitted or top-dose-only effect; inactive means no such curve, though single readings can be large or run the other way; tested in A549 cells; note: nearly all actives have a fitted effect of over 30% in size; inactives centre near -10
Numbers without * were called inactive; i = inactive; ? = inconclusive; · = not tested or not shown; [ ] = dose if it differs, or a comment. % is set by controls: 0 for no effect and ±100 for the full control effect; potency is the fitted concentration of half-maximal effect. Rows were taken by chance. Share with any hit: about 0.88%.

SMILES	VACV mCherry inh	VACV Venus inh
Cc1ccccc1NC(=O)Cc1nc(COC(=O)CCc2ccccc2)cs1	-9%	-9%
C/C(=N\NC(=O)c1nn(C)cc1Br)c1cccc(NC(=O)c2ccncc2)c1	i	-16%
Cc1ccccc1NC(=O)Cc1nc(COC(=O)c2ccc(Cl)nc2)cs1	?	-3%
Cc1cccc(Nc2nc(N)nc(CN3CCC(C)CC3)n2)c1C	-5%	-7%
COc1cccc(OCc2cc(C(=O)NCCc3cccc(C)n3)no2)c1	-17%	-4%
Cc1onc(-c2ccccc2)c1C(=O)NC(C)c1ccc2c(c1)OCO2 (centres undefined)	i	-10%
Cc1ccc(S(=O)(=O)NC(=O)C2(C)CCN2C(=O)C2(c3ccc(Cl)cc3)CCC2)cc1 (centres undefined)	30%[activator]	-6%
O=C1CC(N(CCc2ccccc2)C(=S)Nc2ccccc2)C(=O)N1c1ccccc1 (centres undefined)	9%	-23%
COc1cc2c(NC3CCN(C)CC3)nc(N3CCCN(C)CC3)nc2cc1OCCCN1CCOCC1	?	8.9µM*
Cc1ccc([N+](=O)[O-])cc1N=C(c1cccc(Br)c1)N1CCOCC1	-16%	-9%
COc1ccc(-c2cc(-c3ccc(F)cc3)nc(N3CCN(C)CC3)n2)cc1	-14%	-5%
CN(C(=O)C1CCCC1)C1CCS(=O)(=O)C1 (centres undefined)	i	-3%
COc1ccccc1OCC(O)CN1CCN(C(=O)c2ccccc2)CC1 (centres undefined)	i	-14%
O=C(CSc1nnc(-c2ccc3c(c2)OCO3)n1-c1ccccc1)c1ccccc1	i	-9%
CCOC(=O)CNC(=S)N(Cc1ccccc1F)C1CCCCC1	-5%	-21%
O=C(N/N=C\c1ccc(Cl)s1)c1cccs1	-28%	-22%
CC[C@]12c3[nH]c4cc(-c5ccco5)ccc4c3CCN1C(=O)[C@@H](CC(=O)NC/C=C(\C)CCC=C(C)C)C[C@@H]2C(=O)N1CCN(C(=O)c2ccco2)CC1	?	?
CC(C)=CCN1CCN(Cc2ccc(Sc3nncn3C)o2)CC1CCO (centres undefined)	i	17%
CCc1ccc(CN2C(=O)CCC2(C)C(=O)NC2CCCC2)cc1 (centres undefined)	-26%	-19%
Cc1cc(NC(=O)CC2(CC(=O)O)CCCC2)n(C)n1	-4%	-16%
O=C(O)CCCC(=O)Nc1ccccc1Oc1ccccc1	i	1%
COc1cc(-c2cc(C)c3cccc(OC)c3n2)cc2c1OCCN(C(=O)Cn1nc(C)cc1C)C2	-7%	-1%
Cc1ccccc1CN(C)C(=O)c1ccc2ccccc2n1	19%	-6%
CCCCOC(=O)c1ccc(Nc2ncnc3nc[nH]c23)cc1	-1%	-8%
O=C1CCCN2N=C(SCC(=O)Nc3cccc(C(F)(F)F)c3)SC2=N1	-19%	-1%
COc1ccc(NC(=S)Nc2ccccc2SC)c(OC)c1	i	-6%
COc1ccc([N+](=O)[O-])cc1CN1CCN(c2ncc(Cc3ccccc3)cn2)CC1	?	-28%
O=C(CCOc1ccccc1)N(Cc1cccnc1)c1nc2ccc(Cl)cc2s1	-5%	-18%
O=C(CN1CCN(S(=O)(=O)N2CCCCC2)CC1)Nc1ccc(Cl)c(Cl)c1	?	-25%
Cc1c(Cl)c([N+](=O)[O-])nn1CCCC(=O)N1CCN(c2ccccc2)CC1	-15%	-6%
N#CC1(Cc2ccccc2Cl)c2ccccc2C=CN1C(=O)c1ccccc1 (centres undefined)	i	-11%
O=C(NCc1ccc(Cl)cc1)c1ccc2c(=O)n(CC3CCCO3)c(=S)[nH]c2c1 (centres undefined)	-15%	-2%
CCc1nc2ccc(C(=O)NCCCN3CCN(c4ccc(F)cc4)CC3)cc2nc1CC	?	?
CCOC(=O)N1CCc2c(sc3ncn(Cc4ccc(F)cc4)c(=O)c23)C1	-9%	-23%
Cc1ccc(C(C(=O)NC2CCCC2)N(Cc2ccc(F)cc2)C(=O)c2snc(C(N)=O)c2N)o1 (centres undefined)	-15%	1%
COC(=O)c1ccccc1NC(=O)Cn1c(CCC(=O)O)ccc1-c1ccc(C)cc1	-2%	-11%
CCOc1ccc(CCNC(=O)c2ccc(S(=O)(=O)N3CCCC3)cc2)cc1OCC	-7%	-20%
Cn1c2c(c(=O)n(C)c1=O)C(NS(=O)(=O)c1ccc(Cl)cc1)(C(F)(F)F)C(=O)N2 (centres undefined)	·	-23%
CCOC(=O)[C@]12CCCC=C1N(CCc1ccc(OC)c(OC)c1)C(=O)[C@H](CC(=O)NCC13CC4CC(CC(C4)C1)C3)C2	?	?
COc1ccc(S(=O)(=O)CCC(=O)NCc2ccc(C)o2)cc1	-20%	-8%
CCOC(=O)c1c(NC(=O)CSc2nnc(CNc3ccc(F)cc3)o2)sc(C(C)=O)c1C	-12%	?
CC(C)c1ccc(NC(=O)CC2NCCNC2=O)cc1 (centres undefined)	-4%	-8%
CCc1ccccc1N(C)S(=O)(=O)c1ccc2c(c1)C(C)(C)C(=O)N2C	-12%	-7%
Clc1ccc(C2[C@H]3CN(Cc4cccnc4)[C@H](c4ccccc4)C34CC2(c2cccnc2)C4)cn1 (some centres undefined)	i	?
Clc1ccc(-c2nnc3sc(-c4ccc(Br)o4)nn23)c(Cl)c1	-5%	2%
C=CCNC(=O)c1ccc(OC)cc1	-15%	-10%
CC(C)Oc1ccc(N2CC(C(=O)Nc3ccccn3)CC2=O)cc1 (centres undefined)	11%	-16%
Cc1ccccc1OCC(=O)Nc1ccccc1C(=O)OCc1cc(=O)n2c(C)csc2n1	-17%	-26%

Profiles as entered above:
Record of Clc1ccc(C2[C@H]3CN(Cc4cccnc4)[C@H](c4ccccc4)C34CC2(c2cccnc2)C4)cn1 (some centres undefined) → VACV mCherry inh: i; VACV Venus inh: ?
Record of CCOc1ccc(CCNC(=O)c2ccc(S(=O)(=O)N3CCCC3)cc2)cc1OCC → VACV mCherry inh: -7%; VACV Venus inh: -20%
Record of C=CCNC(=O)c1ccc(OC)cc1 → VACV mCherry inh: -15%; VACV Venus inh: -10%

The list continues:
SMILES	VACV mCherry inh	VACV Venus inh
CCOC(=O)N1CCN(c2c(NCCN3CCN(Cc4ccccc4)CC3)c(=O)c2=O)CC1	i	5%
CC1CCN(c2csc3ccc(F)cc3c2=O)CC1	-16%	-16%
CCOC(=O)CN1C(=O)C2Cc3ccccc3CN2C1=S (centres undefined)	i	-4%
CCCNC(=O)N1c2ccccc2Sc2ccccc21	-10%	-17%
O=c1oc(-c2ccccc2Cl)nc2ccsc12	-9%	-6%
Nc1ccn([C@@H]2O[C@H](C(=O)NCc3ccc4c(c3)OCO4)[C@@H](O)[C@H]2O)c(=O)n1	14%	0%
COc1ccc([C@H]2C[C@@H](n3cc(C4CC4)nn3)[C@H](O)CN2C(=O)C2CCCCC2)cc1	-4%	-9%
CC(=O)N1CCN(S(=O)(=O)c2cccc(C(=O)Nc3nc4ccccc4[nH]3)c2)CC1	·	-13%
CCN(CC)CCCN1CC(O)=C(c2nc3ccccc3s2)C1=N	·	-20%
O=C(Cc1ccccc1)N1CCN=C1SCc1ccc([N+](=O)[O-])cc1	-26%	-19%
Cc1ccc(C)c(N2CCN(C(=O)C34CC5CC(C3)CC(n3nnc(C)n3)(C5)C4)CC2)c1	-16%	-25%
N#CCC(=O)Nc1ccc(C(=O)NNC(=S)NC2CCCCC2)cc1	i	0%
CNc1cc[n+](C)c2ccccc12	32%[activator]	-9%
CCOC(=O)C1(Cc2ccccc2C)CCCN(C(=O)CCc2c(C)noc2C)C1 (centres undefined)	-9%	-12%
CCc1nc2c(sc3nc4c(cc32)COC(C)(C)C4)c(=O)n1Cc1ccco1	·	-25%
Cc1nn(CCC(=O)N2CCN(c3ccccc3)CC2)c(C)c1S(=O)(=O)N1CCCC1	-12%	-4%
Cc1ccc(/C=C/C(=O)OCC(=O)N(C)c2c(N)n(Cc3ccccc3)c(=O)[nH]c2=O)o1	-5%	-14%
Cc1ccc(N2C3=C(C(=O)CC(C)(C)C3)C(c3cn(C)nc3C)C3=C2CC(C)(C)CC3=O)cc1	-26%	35%[activator]
COc1ccc(OCC(=O)N/N=C(\CCC(=O)O)c2cccs2)cc1	-18%	-26%
N#C/C(=C\C=C\c1ccccc1)c1nc(-c2ccc3c(c2)OCO3)cs1	-6%	-7%
COc1ccc(CNc2ccc3c(c2)nc(C)n3C)cc1	·	6%
COc1ccccc1N(C)S(=O)(=O)c1ccc(C(=O)NCc2ccc3c(c2)OCO3)cc1	-29%	-19%
FC(F)(F)COc1ccc(-c2nnc(SCc3c(Cl)cccc3Cl)o2)cn1	-1%	9%
CCOC(=O)c1[nH]c(CSc2nnnn2-c2ccccc2C)c(C(=O)OCC)c1C	-25%	-10%

Look-ups from above:
VACV mCherry inh, `FC(F)(F)COc1ccc(-c2nnc(SCc3c(Cl)cccc3Cl)o2)cn1` stands at -1%
VACV Venus inh, `CCOC(=O)C1(Cc2ccccc2C)CCCN(C(=O)CCc2c(C)noc2C)C1` (centres undefined) stands at -12%
VACV mCherry inh, `N#C/C(=C\C=C\c1ccccc1)c1nc(-c2ccc3c(c2)OCO3)cs1` stands at -6%
VACV Venus inh, `CCc1nc2c(sc3nc4c(cc32)COC(C)(C)C4)c(=O)n1Cc1ccco1` stands at -25%

(continued)
SMILES	VACV mCherry inh	VACV Venus inh
O=S(=O)(c1ccccc1F)N1CCC(Oc2ccc(-n3cnnn3)cc2)CC1	-23%	?
C[C@H]1CN([C@@H](C)CO)C(=O)CCCn2nncc2CO[C@H]1CN(C)S(=O)(=O)c1ccccc1F	i	0%
Cc1ccc(S(=O)(=O)N(CC(=O)Nc2c(C)cccc2C)c2cccc(Cl)c2)cc1	-16%	-15%
O=C(Nc1cc([N+](=O)[O-])ccc1Cl)C1CC1	i	-5%
CCCC1(c2ccccc2)NC(=O)NC1=O (centres undefined)	-18%	13%
COc1ccc2c(CC(=O)NNC(=O)c3cccs3)coc2c1	-23%	-14%
CC(=O)N(C)c1ccc(NC(=O)Nc2ccccc2C)cc1	-6%	-18%
N#Cc1c(NCCN)nc(-c2ccccc2)c2c1CCCC2	·	?
CC(=O)CSc1nnc(-c2ccco2)n1-c1ccccc1	-2%	0%
Cc1ccc(C(=O)Nc2cccc(-c3nc4cccnc4s3)c2C)cc1	i	-21%
CCOC(=O)Cc1ccc(Nc2nc3cc(-c4sccc4C)sc3c(=O)n2C)cc1	-20%	?
O=C(NCc1ccc(F)cc1)c1cc(-c2ccc(Cl)cc2)n[nH]1	8%	1%

Not a retest: three of the compounds above.
SMILES	VACV mCherry inh	VACV Venus inh
O=S(=O)(c1ccccc1F)N1CCC(Oc2ccc(-n3cnnn3)cc2)CC1	-23%	?
C[C@H]1CN([C@@H](C)CO)C(=O)CCCn2nncc2CO[C@H]1CN(C)S(=O)(=O)c1ccccc1F	i	0%
Cc1ccc(S(=O)(=O)N(CC(=O)Nc2c(C)cccc2C)c2cccc(Cl)c2)cc1	-16%	-15%

Remaining list, next part.
SMILES	VACV mCherry inh	VACV Venus inh
COc1ccc(N(CC(=O)N/N=C/c2ccc(-c3ccc([N+](=O)[O-])cc3)o2)S(=O)(=O)c2ccc(C)cc2)cc1	-2%	-15%
COc1ccc(/C=C/C(=O)O)cc1S(=O)(=O)N1CCc2ccccc21	-8%	-9%
COc1ccc(Cl)cc1C(=O)NCc1nc(-c2cccc(C)c2)no1	i	-10%
Oc1ccc2ccccc2c1/C=N/c1nc2c(s1)CCCC2	·	?

Random excerpt: 3 records from the list.
SMILES	VACV mCherry inh	VACV Venus inh
COc1ccc(Cl)cc1C(=O)NCc1nc(-c2cccc(C)c2)no1	i	-10%
COc1ccc(N(CC(=O)N/N=C/c2ccc(-c3ccc([N+](=O)[O-])cc3)o2)S(=O)(=O)c2ccc(C)cc2)cc1	-2%	-15%
Oc1ccc2ccccc2c1/C=N/c1nc2c(s1)CCCC2	·	?
